# Bead autofluor: counter-screen for toxin protease inhibitors: compound fluorescence | compound autofluorescence counterscreen, microsphere flow cytometry; stronger effect = higher value | fluorescence intensity (test concentration not listed) | actives 3.1% (n = 360,000) | AID 624483;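 active means at least 3 SD above the mean of all compounds, about 16000 in these data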;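 further: 100 nL of 1 mM stock went into each well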
# Sa ugtP lethal: growth inhibition of S. aureus ugtP deletion strain | S. aureus RN4220 ugtP deletion, OD600 growth, 16 h; some inactives read as strong as hits | growth inhibition, % (concentration not given with the values) | actives 0.54% (n = 330,000) | AID 1259309;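 active means z-score under -3 and OD600 up to 0.15 on both plates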;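 further: plate controls were untreated wells for no effect and antibiotic for full effect; wells of about 80 µL received 100 nL stock; the first replicate is given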
# RN4220 kill: kills Staphylococcus aureus RN4220; S. aureus RN4220 growth, OD600, 16 h; inhibition, % (concentration not given with the values); actives 0.33% (n = 330,000);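 active means z-score of -3 or lower and OD600 up to 0.18 on both plates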;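 further: plate controls were untreated cells for no effect and reference antibiotic for full effect; stock transfer was 100 nL into about 80 µL; one replicate is shown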
# PrP UTR inh: inhibition of PrP 5' UTR reporter expression | inhibition, % (test concentration not listed) | actives 0.35% (n = 340,000) | cell-based PrP 5' UTR mRNA reporter, plate reader | AID 488862;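 active means every replicate at 50% or more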;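 further: 0 = median of the neutral control wells; tested in H4 reporter cells; numbers are from one replicate; inactives centre near -14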
# BJeLR viability: BJeLR cell viability loss. inhibition, % (test concentration not listed). actives 0.17% (n = 300,000). BJeLR (HRASV12) viability, CellTiter-Glo ATP luminescence, 48 h; reference of the scale not given here. AID 1554;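 active means replicate mean above 50%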;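 further: 50 nL library stock added to about 25 µL; numbers are from one replicate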
# Mtb hypoxia rep: reduces hypoxia-regulated biosensor signal in M. tuberculosis | actives 0.1% (n = 300,000) | fluorescence inhibition, % (test concentration not listed) | M. tuberculosis hypoxia-regulated fluorescent reporter, fluorescence;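 active means 35 to 45% if threefold the growth effect, above 45% if 1.5-fold the growth effect; inactive means the rest, general growth blockers included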;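 further: wells of about 50 µL received 100 nL stock; 0% = vehicle wells and 100% = reference inhibitor wells; whole bacteria with a GFP reporter of the hypoxia response; strong numbers were not always called active; many hits fall short of the cut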
# Mtb hypoxia rep growth: recorded beside Mtb hypoxia rep, whose call it bears; growth inhibition, %; measured here: M. tuberculosis growth (absorbance);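 0% = vehicle and 100% = reference antibiotic; read after six days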
# An asterisk follows results filed as active; . = no result given.
# Start of the data: the first four entries, ahead of the listing:
SMILES,Bead autofluor,Sa ugtP lethal,RN4220 kill,PrP UTR inh,BJeLR viability,Mtb hypoxia rep,Mtb hypoxia rep growth
CCOC(=O)c1c(NC(=O)C2CCCCC2C(=O)O)sc2c1CCCCC2 (configuration not stated),4409,-9,15,-33,9,4,5
Nc1ccccc1C#CCCCCO,3000,-6,4.8,-15,8,12,15
COc1cccc2cc(-c3cc(=O)oc4ccc(OCC(C)=O)cc34)oc12,6018,-17,6.3,13,-4,-10,-3
Cc1ccc(SCCC(=O)NCC2CCCO2)cc1 (configuration not stated),4423,2,1.0,5,-2,.,.

# This part in full (from the top)
SMILES,Bead autofluor,Sa ugtP lethal,RN4220 kill,PrP UTR inh,BJeLR viability,Mtb hypoxia rep,Mtb hypoxia rep growth
CCOC(=O)c1c(NC(=O)C2CCCCC2C(=O)O)sc2c1CCCCC2 (configuration not stated),4409,-9,15,-33,9,4,5
Nc1ccccc1C#CCCCCO,3000,-6,4.8,-15,8,12,15
COc1cccc2cc(-c3cc(=O)oc4ccc(OCC(C)=O)cc34)oc12,6018,-17,6.3,13,-4,-10,-3
Cc1ccc(SCCC(=O)NCC2CCCO2)cc1 (configuration not stated),4423,2,1.0,5,-2,.,.
CN1C(=O)N(C)C2C1N(CN1CCCCC1)C(=O)N2CN1CCCCC1 (configuration not stated),2512,-1,2.1,-19,2,.,.
CCc1c(C)n([O-])c2c([n+]1=O)CCCCC2,2408,-3,-2.6,-27,-5,.,.
CN(C)c1ccc(NC(=O)C=Cc2c(Cl)cccc2Cl)cc1,.,-11,8.2,.,.,3,11
COc1ccc(-n2nc([N+](=O)[O-])c(=NCCc3ccc(Cl)cc3)n2O)cc1,7615,19,2.7,-26,-5,-3,5
COc1ccccc1N1CCN(C(=O)c2oc3ccc(F)cc3c2C)CC1,10223,17,17,7,-7,2,2
CCOC(=O)NC(=O)CSc1nc2ccc([N+](=O)[O-])cc2[nH]1,3203,-9,-0.7,-13,1,-7,14
CCOc1cccc(C(=O)Nc2ccc(S(=O)(=O)Nc3cc(C)on3)cc2)c1,5872,10,-4.3,-20,-11,22,21
NCCCCC(C(=O)N1CCNCC1)n1cc(CCC(=O)O)nn1 (configuration not stated),.,3,5.5,.,.,2,-6
COc1cccc(-c2csc(NC3OC(=O)c4c3ccc(OC)c4OC)n2)c1 (configuration not stated),5895,6,3.3,.,8,6,5
COc1ccc(NC(=O)C(c2ccc(Cl)cc2)C(C)C)cn1 (configuration not stated),6211,-6,-4.4,-13,-3,2,0
Cc1ccc(CNC(=O)C2CCC(CNS(=O)(=O)c3cccs3)CC2)cc1 (configuration not stated),3896,9,3.6,-10,-3,4,1

# The list goes on; it opens with the five that closed the last part.
SMILES,Bead autofluor,Sa ugtP lethal,RN4220 kill,PrP UTR inh,BJeLR viability,Mtb hypoxia rep,Mtb hypoxia rep growth
CCOc1cccc(C(=O)Nc2ccc(S(=O)(=O)Nc3cc(C)on3)cc2)c1,5872,10,-4.3,-20,-11,22,21
NCCCCC(C(=O)N1CCNCC1)n1cc(CCC(=O)O)nn1 (configuration not stated),.,3,5.5,.,.,2,-6
COc1cccc(-c2csc(NC3OC(=O)c4c3ccc(OC)c4OC)n2)c1 (configuration not stated),5895,6,3.3,.,8,6,5
COc1ccc(NC(=O)C(c2ccc(Cl)cc2)C(C)C)cn1 (configuration not stated),6211,-6,-4.4,-13,-3,2,0
Cc1ccc(CNC(=O)C2CCC(CNS(=O)(=O)c3cccs3)CC2)cc1 (configuration not stated),3896,9,3.6,-10,-3,4,1
O=C(CCc1ccc(Oc2cc([N+](=O)[O-])cc([N+](=O)[O-])c2)cc1)Nc1cccc(Cl)c1,2394,-26,-12,-16,8,0,16
COC(=O)c1c(C)[nH]c(C(=O)C(C)Sc2nnc(-c3cc(OC)c(OC)c(OC)c3)o2)c1C (configuration not stated),4545,4,-2.4,-3,-1,.,.
O=C1C(C2=NC(c3ccccn3)C3C(=O)N(c4ccccc4)C(=O)C23)=C(O)c2ccccc21 (configuration not stated),4894,1,2.2,-18,-3,5,5
Cc1n[nH]c(=O)nc1NCC1CCCO1 (configuration not stated),3516,3,4.3,-5,17,6,6
COCCN(C(=O)CSc1ccc2c(c1)OCCO2)c1c(N)n(CC(C)C)c(=O)[nH]c1=O,3144,6,4.3,-24,.,13,10
CC(C)Nc1nc(-c2ccncc2)nc(-c2ccc(Cl)cc2)c1C#N,4255,-3,4.2,-57,2,7,4
CC1=NN(c2nc(-c3ccc(C)cc3)cs2)C(=O)C1N=Nc1ccc(C(N)=O)cc1 (configuration not stated),4665,.,.,-20,9,.,.
CN(c1ccccc1)S(=O)(=O)c1cccc(NC(=O)CCNC(=O)c2ccc(Cl)cc2)c1,3520,0,9.0,-23,.,7,6
Cc1noc(C)c1C(=O)N1CCN(c2ccc(OCc3ccccc3)cc2)CC1,4615,1,2.3,-11,-2,12,-6
CC#CC[N+](C)(C)CC(=O)c1ccccc1,4367,2,2.9,5,-2,4,4
COc1ccc(N2CCC(CNC(=O)Nc3cccc(OC)c3)C2)cc1 (configuration not stated),11836,1,-1.5,-25,-7,3,6
COc1cc(CN(C)C(=O)C2CCN(S(=O)(=O)c3cccs3)CC2)ccc1OC(F)F,3104,9,5.4,5,.,1,-5
O=C1CCCN1CC(=O)N1CCCC(Nc2cccc(F)c2)C1 (configuration not stated),5288,-2,-2.9,-22,1,-1,4
O=C(O)COc1ccccc1C=NNC(=O)c1cc(-c2ccc(F)cc2)nc2ccccc12,.,12,-1.2,.,.,-9,-2
O=C(Cc1ccccc1)Oc1ccccc1N1C(=O)CCC1=O,4380,10,1.7,-12,6,6,2

# Copied from the list.
# `COc1ccc(NC(=O)C(c2ccc(Cl)cc2)C(C)C)cn1` (configuration not stated) in Mtb hypoxia rep growth shows 0
# `Cc1noc(C)c1C(=O)N1CCN(c2ccc(OCc3ccccc3)cc2)CC1` in PrP UTR inh shows -11

# Continuation.
SMILES,Bead autofluor,Sa ugtP lethal,RN4220 kill,PrP UTR inh,BJeLR viability,Mtb hypoxia rep,Mtb hypoxia rep growth
Cc1cc(N2CCC(C)CC2)n2ncc(-c3ccccc3)c2n1,4621,76,-11,-11,6,.,.
CCN(C(=O)COn1nnc2ccc(S(=O)(=O)N(C)C)cc21)C1CCS(=O)(=O)C1 (configuration not stated),3978,6,-1.5,-24,.,-2,-15
COc1cccc(C2C3=C(CC(C)(C)CC3=O)Nc3n[nH]c(C)c32)c1 (configuration not stated),4455,7,-0.1,-7,5,5,0
COC(=O)c1ccc(C23CC4(C2)C(CN(C)C4c2ccccc2)C3c2ccc(C(F)(F)F)cc2)cc1 (configuration not stated),.,7,-5.8,.,.,-5,-4
C=CCn1c(SCC(=O)Nc2ccc(-c3nc4ccc(C)cc4s3)cc2)nnc1-c1ccncc1,2010,6,12,-67,1,6,-3
Cc1cccc(NC(=S)NCCN2CCOCC2)c1,2522,8,3.2,-6,-9,3,3
N#Cc1c(NC(=O)C2CC(c3ccccc3Cl)=NO2)sc2c1CCC2 (configuration not stated),8209,-19,-2.4,-16,-9,-6,-12
CC(NC(=O)CCCCCN1C(=O)c2ccccc2C1=O)c1ccc2c(c1)CCCC2 (configuration not stated),4081,-8,-1.5,-15,-2,14,3
O=Cc1c[nH]c2cccc(OCc3ccccc3)c12,.,-4,0.7,-13,.,-19,-6
COc1cccc(-c2cn(CC3CCC(C4CCC(Cn5cc(-c6cccc(OC)c6)nn5)O4)O3)nn2)c1 (configuration not stated),.,6,-0.7,.,.,-2,4
COc1cc(OC)c(OC)cc1C=NNc1nc2ccccc2[nH]1,.,-5,-0.5,.,.,-1,-1
Cc1ccc2nc(-c3ccc(N4C(=O)CC(N5CCC(C(N)=O)CC5)C4=O)cc3)sc2c1 (configuration not stated),.,11,3.3,.,-6,-1,-3
CN(CC(O)COc1ccccc1F)C1CCCCC1 (configuration not stated),4619,12,6.6,-6,7,0,6
CCOC(=O)c1sc(=S)n(-c2cccc(OC)c2)c1N,11470,-2,6.3,-9,7,4,8
CCn1c(CNC(=O)c2ccccc2F)nnc1SCc1nc2ccccc2c(=O)[nH]1,.,10,2.7,.,-1,-8,2
CN1C=CC(=CC=C2C=CC(=O)C=C2)C=C1,11490,6,0.4,-21,12,0,-1
O=C(CNC(=O)Cn1ccc2ccccc2c1=O)NCCCN1CCN(c2cccc(Cl)c2)CC1,3358,76,2.4,-19,9,12,11
Cc1onc(-c2ccccc2)c1C(=O)N(C)CCc1ccccn1,6075,0,3.8,-14,-5,6,-5
O=C(O)CCC(=O)Nc1ccccc1C(=O)NC1CCCCC1,2663,1,2.4,1,2,.,.
CCn1c(SCC(=O)NCCc2ccccc2)nc2c(c1=O)SC(C)C2 (configuration not stated),6089,2,-8.0,-2,-3,5,14
O=C(c1ccccc1)n1ccc(-c2cnc(-c3ccccc3)s2)n1,2293,6,5.5,54*,2,.,.
CSCCNC(=O)c1ccc(C(C)(C)C)cc1,4560,4,7.9,-53,2,14,7
CC(C)Cc1nnc(NC(=O)CN2C(=O)C3CCCCC3C2=O)s1 (configuration not stated),5565,-1,-0.3,-8,0,5,11
O=[N+]([O-])c1ccccc1/C=C/C=N/N1CCCCC1,4815,.,.,-117,1,.,.
CNC(=S)NNC(=O)COc1cccc(C)c1C,3259,-3,-3.9,-20,2,13,15
O=C(CS(=O)(=O)Cc1ccccc1)Nc1ncccn1,4386,5,2.7,-20,-17,.,.
CCOC(Cn1cc(C)c(=O)[nH]c1=O)OCC,3913,3,3.5,-6,8,8,0
CCCC(OC(=O)CN1C(=O)COc2ccccc21)C(=O)NC1CCCC1 (configuration not stated),11517,7,5.8,-20,-2,3,3
COc1cc(S(=O)(=O)N(C)C)ccc1F,16023,7,5.4,-18,6,10,10
COc1ccc(C2=NOC(C(=O)NCc3cccs3)C2)cc1OC (configuration not stated),.,10,3.3,.,25,5,9

# Looked up one by one from the list above (4):
SMILES,Bead autofluor,Sa ugtP lethal,RN4220 kill,PrP UTR inh,BJeLR viability,Mtb hypoxia rep,Mtb hypoxia rep growth
O=C(CNC(=O)Cn1ccc2ccccc2c1=O)NCCCN1CCN(c2cccc(Cl)c2)CC1,3358,76,2.4,-19,9,12,11
CCCC(OC(=O)CN1C(=O)COc2ccccc21)C(=O)NC1CCCC1 (configuration not stated),11517,7,5.8,-20,-2,3,3
CCOC(Cn1cc(C)c(=O)[nH]c1=O)OCC,3913,3,3.5,-6,8,8,0
CSCCNC(=O)c1ccc(C(C)(C)C)cc1,4560,4,7.9,-53,2,14,7

# (further entries)
SMILES,Bead autofluor,Sa ugtP lethal,RN4220 kill,PrP UTR inh,BJeLR viability,Mtb hypoxia rep,Mtb hypoxia rep growth
COc1ccccc1N1CCN(N=Cc2cc(OC)c(OC)c(OC)c2)CC1,.,-1,-3.9,.,.,0,0
CC(=O)c1ccc(N2CCN(C(=O)c3ccc(OCc4c(C)noc4C)cc3)CC2)cc1,3673,12,7.1,-19,-8,6,-1
CCOc1ccc(NC(=S)Nc2cc(-c3ccccc3)[nH]n2)cc1,19137*,-7,-1.4,-5,-16,-14,-7
CC(=NNC(=O)C(=O)Nc1c(C)n(C)n(-c2ccccc2)c1=O)c1ccncc1,.,2,2.6,.,.,13,4
O=C(COC(=O)c1cc([N+](=O)[O-])ccc1N1CCOCC1)NCc1ccc(F)cc1,4065,.,.,4,2,.,.
CC(C)n1cc(/C(N)=N/O)c(=O)n(Cc2ccccc2)c1=O,3580,7,4.9,.,-3,7,4
CCOC(=O)/N=C(/NC(=O)Nc1ccc(C(=O)OCC)cc1)OC,4722,.,.,-1,-1,.,.
CC(=O)c1cccc(NC(=O)c2cccc3ccccc23)c1,5523,5,3.4,-17,-1,3,-3
NC(=O)C1CCCCc2c1[nH]c1ccc(Cl)cc21 (configuration not stated),4071,6,-2.1,-16,3,1,5
COc1ccc2c(c1)c1ncn(CCN3CCCCC3)c(=O)c1n2C,10891,2,4.9,-10,-20,7,5
Cc1ccccc1CC1(CO)CCCN(C(=O)c2cc(Cl)ccc2F)C1 (configuration not stated),4014,-1,4.2,-6,2,-1,6
CN(C)C(CNC(=O)CCNC(=O)c1ccc(Cl)cc1)c1ccco1 (configuration not stated),6326,2,2.0,-2,-5,11,1
Cc1ccc(S(=O)(=O)NC(C)C(c2cccs2)N2CCOCC2)cc1 (configuration not stated),6509,3,4.1,-28,3,2,2
